# HPGD block – qHTS Assay for Inhibitors of HPGD (15-Hydroxyprostaglandin Dehydrogenase); 15-hydroxyprostaglandin dehydrogenase [NAD(+)] (Homo sapiens), P15428; purified HPGD, NADH fluorescence kinetic, PGE2 substrate; Potency, µM, for the others: at the highest dose activity change, negative = inhibition, usual class: inhibitors; 4.3% of 150,000 active; AID 894, 2007; active = well fitted inhibition curve with a large enough effect (not every such curve was filed as active); inconclusive = small, poorly fitted or top-dose-only effect, or another doubt; inactive = no such curve, though single readings can be large or run the other way;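 further: top concentration of the series not given in the record; plate controls included wells without enzyme; inactives centre near -10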
# Target sequence (P15428 whole entry, looked up): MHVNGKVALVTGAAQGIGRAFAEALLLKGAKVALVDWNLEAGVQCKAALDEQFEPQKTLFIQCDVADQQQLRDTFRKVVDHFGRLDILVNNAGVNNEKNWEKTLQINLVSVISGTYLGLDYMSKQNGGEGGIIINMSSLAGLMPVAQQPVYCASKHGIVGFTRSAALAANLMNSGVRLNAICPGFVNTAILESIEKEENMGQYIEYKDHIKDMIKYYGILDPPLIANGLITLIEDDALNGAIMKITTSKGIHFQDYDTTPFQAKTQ
#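 NADH formation kinetics: reaction with 30 uM PGE2 and 1 mM NAD+ (final), 20 nM enzyme, Tris-HCl pH 8 with Tween 20, after 15 min compound preincubation at room temperature. Fluorescence change, last versus first of five reads.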
# Active calls of the source: *; ? = inconclusive; & = joins results of further samples. On the % scale 0 is the no-effect control and ±100 the full control effect; potency means the concentration at half of the fitted maximal effect. A portion of the library; count on the stated rates, not on these rows.
molecule | HPGD block
O=C(CNS(=O)(=O)c1ccc(F)cc1)N1CCN(c2ccc(F)cc2)CC1 | -2%
CC1(C)OC(=O)NC1=O | -14%&-2%
CCC(c1nnnn1Cc1ccccc1)N1CCN(C(=O)c2ccco2)CC1 (stereo not given) | -8%
Cc1ccsc1C(=O)N1CC(=O)Nc2ccccc21 | -14%
Cc1cc(C)c2nc(SCC(=O)N3CC(=O)Nc4ccccc43)c(C#N)cc2c1 | ?
CC(Sc1nncn1-c1ccccc1)C(=O)Nc1cccc([N+](=O)[O-])c1 (stereo not given) | -13%
CCOC(=O)C1CCCN(c2cc(NCCCO)c([N+](=O)[O-])c3nonc23)C1 (stereo not given) | 13µM*
CCn1c(SCC(=O)Nc2cc(C)on2)nnc1-c1cccnc1 | -9%
Cc1ccc(N=C(NOCc2ccc(Cl)cc2Cl)c2nonc2N)c(C)c1 | -12%
O=C(/C=C/Nc1ccccc1F)c1ccc(Br)cc1 | -16%
Cc1ccc(CNC(=O)CN(c2cccc([N+](=O)[O-])c2)S(=O)(=O)c2ccccc2)cc1 | ?
Cc1c(S(=O)(=O)N2CCN(C(c3ccccc3)c3ccccc3)CC2)c(=O)n(C)c(=O)n1C | -8%
CCC(C)NC(=O)CO/N=C/c1ccccc1OC(F)F (stereo not given) | -19%
CC(C)C[C@@H](CC(=O)N[C@@H](CCCN)CC(=O)N[C@@H]1CCNC[C@H]1C(=O)N[C@H](CC(=O)N[C@@H](CCC(=O)O)CC(=O)O)Cc1c[nH]c2ccccc12)NC(=O)[C@@H]1CNCC[C@H]1N | -5%
CCCOC(=O)CSC1=C(C#N)C(c2ccc3c(c2)OCO3)CC(=O)N1 (stereo not given) | -9%
CCCn1c(C)nc2c(N(CCOC)CCOC)nc(C)nc21 | 1%
CN(c1ccc([N+](=O)[O-])cc1/C=N/NC(=O)COc1ccccc1)C1CCCCC1 | -13%
N#CC1=C(S)N(c2ccccc2)C(c2ccc(-c3ccccc3Cl)o2)NC1=O (stereo not given) | -26%
CCc1ccc2nc(NC(=O)CCCc3cccs3)sc2c1 | -6%
Clc1ccc(OCCCN2CCCCC2)c(Br)c1 | 0%

# Some of the entries above in another layout.
structure: Cc1ccc(N=C(NOCc2ccc(Cl)cc2Cl)c2nonc2N)c(C)c1
- HPGD block: -12%
structure: Cc1ccc(CNC(=O)CN(c2cccc([N+](=O)[O-])c2)S(=O)(=O)c2ccccc2)cc1
- HPGD block: ?

# The results go on.
molecule | HPGD block
O=C(CCCN1C(=O)c2cccc3cccc(c23)C1=O)N1CCN(c2ccccc2)CC1 | -24%
O=C(Nc1ccc2c(c1)OCCO2)C1CCCN(S(=O)(=O)Cc2ccccc2)C1 (stereo not given) | -15%
COC(=O)C1(C(C)=O)CC2=CC[C@H]3C(=O)N(c4ccccc4)C(=O)[C@H]3[C@@H]2Cc2ccccc2[C@@H]1C[N+](=O)[O-] (stereo not given in full) | -4%&-3%
O=c1oc2cc(Oc3ccc(C(F)(F)F)cc3[N+](=O)[O-])ccc2c2c1CCCC2 | -3%
C(=C\c1ccccc1)/C=N/N1CCN(c2ccccn2)CC1 | -6%
OC(COCc1ccc(Cl)cc1)CN1CCc2ccccc2C1 (stereo not given) | -4%
Cc1ccsc1C(=O)OCC(=O)N1CCOCC1 | -18%
COc1ccc(-n2nnc3c(=O)n(CC(=O)N4CCCCC4)cnc32)cc1 | -27%
Cc1ccccc1Nc1nc(N)nc(COC(=O)c2cccn2C)n1 | -6%
CC(=O)NC1(C(F)(F)F)N=C(c2ccccc2)NC1=O (stereo not given) | 2%
O=C(NCc1ccco1)C(C(=O)c1ccccc1)n1ccccc1=O (stereo not given) | 5%
Cc1cc(OCC(=O)Nc2ccc(F)c(F)c2)nc(C(C)C)n1 | -12%
CCc1ccc2c(CN3CCc4cc(OC)c(OC)cc4C3)cc(=O)oc2c1 | -25%
COc1ccc(CC/C(=N\O)C2(O)CCCCC2)cc1 | -9%
O=C(Cn1[nH]c(=O)c2ccccc2c1=O)OCC(=O)N1CCc2ccccc2C1 | -12%
CCCCCCC[N+](CC)(CC)CCCCc1ccc(Cl)cc1 | -1%
COc1cc(SC)ccc1C(=O)Nc1ccccc1 | -15%
Cc1onc(-c2ccccc2)c1C(=O)N1CCN(C)CC1 | -5%
COC(=O)CCS(=O)(=O)c1ccc(Cl)cc1 | -7%
COc1ccc2nc(C)cc(SCC(=O)O)c2c1 | ?

# Following part
molecule | HPGD block
COC(=O)Cc1c(C)nc2nc(NCc3ccccc3OC)[nH]n2c1=O | 1%
Cc1ccc(/C=N/n2c(-c3ccncc3)n[nH]c2=S)cc1 | 20µM*
COC(=O)[C@@]1(Cc2ccc(OC)cc2)[C@H]2c3cc(C(=O)N4CCCC4)n(CCN4CNCC4=O)c3C[C@H]2CN1C(=O)c1ccccc1 | -6%
COc1ccc(CCNC(=O)CSCc2ccc(F)cc2)cc1OC | 0%
CSc1nc(C)cc(C)c1C(N)=O | -8%
CC(C)(C)c1cnnn1-c1ccc(NC(=O)c2ccc3c(c2)OCO3)cc1 | -26%
Clc1ccccc1NN(Cc1ccccn1)c1ccccc1Cl | -17%
COc1ccc(N2C(=O)CC(N3CCC(O)(c4ccc(Cl)cc4)CC3)C2=O)cc1 (stereo not given) | 2%
CCOC(=O)c1[nH]c(C)c(C(=O)OCC(=O)N2c3ccccc3CC2C)c1C (stereo not given) | -13%
c1ccc(-c2noc(-c3cccc4ccccc34)n2)cc1 | ?
O=C(CSc1nc2ccccc2[nH]1)Nc1nc(-c2ccccc2)c(-c2ccccc2)o1 | -29%
Cc1cnn(C(=S)NCCc2ccccc2)c1 | -19%
O=C(CCSc1ccccc1)N1CCN(C(=O)c2ccco2)CC1 | -14%
CCN(CC)CCOc1ccc2c(c1)C(=NNC(=O)c1ccccn1)c1cc(OCCN(CC)CC)ccc1-2 | -13%
O=C(Nc1ccccc1)NC1(C(=O)NCc2ccc3c(c2)OCO3)CCCCC1 | -15%
CCOc1ccccc1NC(=O)CSCC(=O)Nc1ccccc1 | -10%
CN1CCN(C(=S)Nc2cccc(Cl)c2)CC1 | -15%
Cc1cc(NC(=O)c2cnn3c(C(F)F)cc(C4CC4)nc23)no1 | -15%
CCOc1ccccc1-n1c(CNc2ccc(F)cc2)nnc1SCC(=O)NCc1ccco1 | -13%
CCCCc1c(C)nc2c(OC)cccc2c1SCCC(=O)O | ?

# Other results follow:
molecule | HPGD block
COc1ccc(/C=N/NC(=O)CCOc2ccccc2C)cc1OC | ?
Cc1ccc(NC(=O)c2ccc(CSc3nnc(C)s3)cc2)cc1 | -14%
Cc1ccc(C)c(Oc2coc3cc(OCC(=O)Nc4ccccc4C(C)C)ccc3c2=O)c1 | -14%
NS(=O)(=O)c1ccc(NC(=O)COC(=O)c2cn(-c3ccccc3)nc2-c2ccc(F)cc2)cc1 | -14%
COC(=O)/C(N=Nc1c(C)n(C)n(-c2ccccc2)c1=O)=C(\C)O | -12%
Cc1cc(C)cc(C(=O)NC(=S)Nc2ccc(-c3cc4ccccc4oc3=O)cc2)c1 | -5%
COCCNC(=O)c1ccccc1NC(=O)CN(c1ccc2c(c1)OCO2)S(C)(=O)=O | -5%
O=C(NCCN1CCOCC1)c1ccccc1-c1ccccc1 | 5%
COc1ccccc1CN1CCCC2(CCN(C(=O)c3csnn3)CC2)C1 | 1%
CCc1sc(NS(C)(=O)=O)nc1-c1ccccc1 | -7%
COC(=O)c1c[nH]n2c(=O)cc(C)nc12 | -21%
Cc1ccc(CN2C(=O)CCC2C(=O)NCCN2CCOCC2)cc1 (stereo not given) | -10%
COc1cccc(C(=O)NC(=S)Nc2ccc3c4c(cccc24)CC3)c1 | -9%
CCOc1ccc2nc(-c3ccccc3)[nH]c2c1 | ?
CC(C)(CSc1ccccn1)NS(=O)(=O)c1ccccc1 | 0%
COC(=O)c1ccc(NC(=O)CN2CCN(c3ccc(Cl)cc3)CC2)cc1 | -28%
COCCn1c(COC)nc2ccccc21 | -10%
COC/C=C/C1=CC2=CC(=O)C(C)(OC(=O)c3cnc4ccccc4n3)C(=O)C2=CN1CC1CC1 (stereo not given) | -1%
Cc1ccc(NS(=O)(=O)c2cccc(C(=O)Nc3cc(C)on3)c2)cc1 | -2%
CNC(=O)c1ccccc1F | -10%

# Rewritten with values ahead of the structure: entries from further up
HPGD block | SMILES
-14% | NS(=O)(=O)c1ccc(NC(=O)COC(=O)c2cn(-c3ccccc3)nc2-c2ccc(F)cc2)cc1
-21% | COC(=O)c1c[nH]n2c(=O)cc(C)nc12

# Returning to the listing, starting two compounds before the break.
molecule | HPGD block
Cc1ccc(NS(=O)(=O)c2cccc(C(=O)Nc3cc(C)on3)c2)cc1 | -2%
CNC(=O)c1ccccc1F | -10%
C[C@H]1C[C@]2(O[C@@H]2C)C(=O)O[C@@H]2CCN(C)C/C=C(/COC(=O)[C@]1(C)O)C2=O | -5%
CNC(=O)C1=NCCCc2cc(OC)c(OC)cc21 | -12%
O=C(NCC1CCCO1)c1nn2c(c1Cl)NC(c1ccc(F)cc1)CC2C(F)(F)F (stereo not given) | -15%
O=c1c2c([N+](=O)[O-])cc([N+](=O)[O-])cc2sn1-c1ccc(Br)cc1 | 2.2µM*
CN1C(=S)SC(/[N+]([O-])=C/c2cccnc2)C1(C)C (stereo not given) | 1%
Cc1cc(C)c2ccc(N)nc2c1O | -8%
Cc1cc2nc(-c3ccc(SCC(=O)Nc4ccc(S(=O)(=O)NC5CC5)cc4)nc3)[nH]c2cc1C | ?
CC(C)Oc1ccc2ccccc2c1C=O | -9%
O=C(N/N=C/c1ccc2c(c1)OCO2)c1ccccn1 | -21%
O=C1CN(C(=O)COC(=O)c2cccc(OCc3ccccc3)c2)c2ccccc2N1 | -10%
Nc1ccccc1-c1nnn(CC(=O)N2CCCc3ccccc32)n1 | -1%
COC(=O)c1cn[nH]c1N | -8%
CCn1c(COc2ccc(Cl)cc2)nnc1SCC(=O)Nc1ccc2c(c1)OCO2 | -4%
C=CCN(CC=C)S(=O)(=O)c1ccc(C(=O)Nc2sc3c(c2C(N)=O)CCCCC3)cc1 | ?
COC(=O)c1ccc(NC(=O)c2cccc(OC)c2)cc1 | 28µM*
COc1ccc2c(c1)C(c1ccc3c(c1)OCO3)CC(=O)O2 (stereo not given) | -8%
CCOC(=O)c1ccccc1NC(=O)CN(c1cccc(OC)c1)S(C)(=O)=O | -14%
COc1ccc(OCC(=O)N2CCN(C(=O)c3ccccc3)CC2)cc1 | -6%
O=C1N/C(=N\N=C\c2cccs2)SC1Cc1cccc(Cl)c1 (stereo not given) | -25%
O=C(COC(=O)CCNS(=O)(=O)c1cccc(C(F)(F)F)c1)NC(=O)NC1CCCCC1 | -12%

# New compounds follow.
molecule | HPGD block
O=C(Nc1cccc(S(=O)(=O)N2CCCCC2)c1)c1c2c(nc3ccccc13)CCN(Cc1ccccc1)C2 | -10%
Cc1nc2cc(C(=O)N3CCc4ccccc43)ccc2n1-c1ccc(F)c(F)c1 | 14µM*
CCOC(=O)c1c(NC2=NS(=O)(=O)c3ccccc32)sc2c1CCC(C)C2 (stereo not given) | ?
CC(C)CSC1=NSC2=NC(=O)/C(=C\c3cccs3)C(=N)N12 | -27%
O=C(Oc1c(Br)cc([N+](=O)[O-])cc1Br)c1cccnc1 | -8%
CCn1c(SCC(=O)Nc2sc3c(c2C#N)CCCC3)nnc1-c1ccco1 | -5%
O=C1CC(c2ccco2)CC(O)=C1C=Nc1cc(Cl)cc(Cl)c1 (stereo not given) | -9%
Cc1cc(C)cc(C(=O)NCC(=O)OCC(=O)N2c3ccccc3NC(=O)C2(C)C)c1 | -1%
COc1ccc(-c2nnc(SCc3c(C)noc3C)n2N)cc1OC | -11%
Cc1nn(-c2cc(N3CCCCCC3)ccc2[N+](=O)[O-])c(=O)c2ccccc12 | -9%
OC[C@H](CCc1c[nH]c2ccccc12)c1c[nH]c2ccccc12 | -29%
CCc1ccc(-n2c(=O)c3c(C)c(C(=O)N(C)C)sc3n(CC(=O)NCc3ccco3)c2=O)cc1 | -14%
O=C(/C=C/c1ccc([N+](=O)[O-])cc1)NCc1ccco1 | -11%
Cc1cc(C)nc(NN2C(=O)/C(=C/c3ccccc3)SC2=S)n1 | 35µM*
Cc1ccc2nc3n(c(=O)c2c1)CCCCC3 | -11%
CCCCn1nnnc1SCC(=O)c1cc(Cl)ccc1OC | -26%
O=C(Nc1cccnc1)c1cccnc1Cl | -3%
Cc1cc2oc(=O)cc(-c3ccccc3)c2c(C)c1-c1ccc(C(F)(F)F)cc1 | -3%
Cc1ccc(-n2nc3ccc(NC(=O)/C=C/c4ccco4)cc3n2)cc1 | -11%
CCC(c1nnnn1CCc1ccccc1)N1CCN(c2ccc(OC)cc2)CC1 (stereo not given) | -3%

# More results follow.
molecule | HPGD block
CCS(=O)(=O)n1nc(-c2ccccc2)nc1NCc1ccco1 | 5%
Cc1ccccc1NC(C)C(=O)N/N=C/c1ccccc1OCc1cccc(Br)c1 (stereo not given) | -20%
COc1ccc(NS(=O)(=O)c2ccc(N3CCCC3)c(NC(=S)Nc3ccc(SC(F)F)cc3)c2)cc1 | 3.5µM*
CCN1CCN(c2cc(C)c3cc(NC(=O)c4ccncc4)ccc3n2)CC1 | -23%
C=CCn1c(SCC(C)=O)nnc1-c1cc(-c2ccccc2)sc1N | -16%
Cc1ccc(C)c(OCC(=O)Nc2nc3ccc([N+](=O)[O-])cc3s2)c1 | -4%
Cc1noc(C)c1C(=O)N1CCc2ccccc21 | -6%
O=C(Cc1cccs1)N1CCN(S(=O)(=O)c2ccc(Br)cc2)CC1 | 1%

# Compound activity from PubChem.
